CBX7 AlphaScr: CBX7 chromodomain binding inhibitors, primary screen, biochemical, AlphaScreen. Chromobox protein homolog 7 (Homo sapiens), O95931. AlphaScreen His6-CBX7 / biotin-H3K27me3 peptide binding; stronger effect = lower value. normalised signal (fraction of DMSO) (no concentration beside the values). actives 1.1% (n = 66,000); in the data active means normalised signal below about 0.5;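 further: 100 nL library stock added to about 20 µL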
Target sequence (O95931 whole entry, looked up): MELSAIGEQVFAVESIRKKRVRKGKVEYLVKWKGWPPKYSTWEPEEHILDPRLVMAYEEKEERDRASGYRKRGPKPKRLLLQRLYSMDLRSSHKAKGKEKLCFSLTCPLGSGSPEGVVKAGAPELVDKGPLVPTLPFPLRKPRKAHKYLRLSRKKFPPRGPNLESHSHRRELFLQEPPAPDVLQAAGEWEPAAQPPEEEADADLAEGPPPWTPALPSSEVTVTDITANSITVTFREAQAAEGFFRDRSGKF
CBX7 AlphaScr z-score: further read-out of CBX7 AlphaScr, marked with its call; z-score; measured here: z-score of CBX7 signal; some inactives read as strong as hits; reference of the scale not given here;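 same signal on another scale; lower means less binding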
An asterisk follows results filed as active. A portion of the library, so the mix of outcomes need not match the whole.

SMILES | CBX7 AlphaScr | CBX7 AlphaScr z-score
O=C(Cn1ccc2ccccc2c1=O)NCCC(=O)Nc1cccc(Cl)c1 | 0.97 | -0.88
Cc1onc(-c2ccccc2)c1C(=O)Nc1ccc(S(=O)(=O)N2CCC(C)CC2)cc1 | 0.88 | -2.1
C=CCn1c(Cc2c(C)[nH]c3ccccc23)nnc1SCC(=O)NCc1ccc(F)cc1 | 0.97 | -0.9
Cc1ccc(Nc2cc(C(=O)NC3CCCC3)c3ccccc3n2)cc1C | 1.1 | 4.1
COc1ccc(S(=O)(=O)N2CC=C(C(=O)Nc3ccc(NC(C)=O)cc3)CC2)cc1 | 1 | -0.17
COc1ccc(-c2cc(C(=O)Nc3cc(Cl)ccc3OC)no2)cc1 | 1.4 | 2.6
Cc1ccc(-c2csc(NC(=O)c3ccc(Cl)cc3)n2)c(C)c1 | 1.1 | 0.93
O=C(C1CCC1)N1CCc2cc(S(=O)(=O)N3CCCCCC3)ccc21 | 0.99 | -0.24
CCCCN(C)C(=O)c1ccc2c(c1)N(Cc1ccc(Cl)cc1)C(=O)c1ccccc1S2=O (stereo not drawn) | 0.99 | -0.15
O=C(CCn1nc(-c2ccc(Cl)cc2)c2ccccc2c1=O)Nc1ccccc1 | 1 | 0.72
CC1(C)CC(=O)N(CC(=O)NCCc2ccc(S(N)(=O)=O)cc2)c2ccccc2S1 | 1 | 1.2
O=C(NC1CCCC1)c1cc2c(s1)CS(=O)(=O)C2 | 0.91 | -1.7
CCc1ccc(NC(=O)CCc2c(C)nc3cc(-c4cccc(F)c4)nn3c2C)cc1 | 0.91 | -1.4
Cc1nc2cc(-c3ccccc3)nn2c(C)c1CCC(=O)N1CCOCC1 | 1 | 0.32
Cc1cc(Oc2ccccc2)nc(Oc2ccc(OCc3ccccc3)nn2)n1 | 0.96 | -1.4
O=C(C1CCN(S(=O)(=O)c2cnc[nH]2)CC1)N1CCC(Cc2ccccc2)CC1 | 1.1 | 1.3
COc1cccc(N2C(=O)C(CC(=O)Nc3ccccc3)N(Cc3ccc(F)cc3)C2=O)c1 (stereo not drawn) | 1 | 0.52
COc1ccc(CN2CC(C(=O)NCCCN3CCCCC3)CC2=O)cc1 (stereo not drawn) | 1 | 0.29
O=C(NCc1ccccn1)c1ccc2c(c1)N(Cc1ccc(F)cc1)C(=O)c1ccccc1S2 | 1 | 0.19
CCC(C)NC(=O)c1ccc2c(c1)N(Cc1ccccc1Cl)C(=O)CS2 (stereo not drawn) | 0.99 | -0.26
COc1ccc(OC)c(NC(=O)c2sc3ncn(CC(=O)N4CCCC4)c(=O)c3c2C)c1 | 1.3 | 2.6
Cc1ccccc1OCCn1c(C2CC(=O)N(c3ccc(Br)cc3)C2)nc2ccccc21 (stereo not drawn) | 0.97 | -0.21
CCN1C(=O)c2ccccc2S(=O)c2ccc(C(=O)NCCN(CC(C)C)CC(C)C)cc21 (stereo not drawn) | 1.1 | 2.7
CCc1cccc(NC(=O)CN2C(=O)C3CCCN3c3ccc(C(=O)OC)cc32)c1 (stereo not drawn) | 1.1 | 0.27
CC(C)NC(=O)c1cc(-c2ccncc2)nc2ccccc12 | 1 | 0.031
Cc1cccc(N(CC(N)=O)S(=O)(=O)c2ccccc2)c1C | 0.97 | -0.77
O=c1c2ccccc2nc(/C=C/c2ccc(O)cc2)n1Cc1ccccc1 | 1.1 | 0.78
CN1CCN(C(=O)Cn2ncc3c2-c2ccccc2OC3)CC1 | 1 | 0.39
CCOC(=O)c1cnc2c(C)cc(Cl)cc2c1Nc1ccc(C)cc1 | 1.1 | 0.48
Clc1c(-c2nnc(-c3cccs3)o2)sc2ccccc12 | 0.99 | -0.13
CCc1ccccc1NS(=O)(=O)c1ccc2c(c1)CCC(=O)N2 | 0.95 | -1.3
CCn1cnc2cc(NCc3ccc(OC)c(OC)c3)ccc21 | 0.95 | -1.2
COc1ccc(-c2noc(CN3CCC(C(N)=O)CC3)n2)cc1 | 1 | 0.95
CCCCC(NS(=O)(=O)c1ccc(C)cc1)C(=O)O (stereo not drawn) | 0.75 | -1
O=C(CNS(=O)(=O)c1cccs1)NCCCN1CCN(c2ccccc2F)CC1 | 1 | 0.26
O=C(CCn1nc(-c2ccccc2)ccc1=O)NCCN1CCC(Cc2ccccc2)CC1 | 1 | -0.088

In another format: 3 of the compounds above.
smiles: CCOC(=O)c1cnc2c(C)cc(Cl)cc2c1Nc1ccc(C)cc1
  CBX7 AlphaScr: 1.1 | CBX7 AlphaScr z-score: 0.48

smiles: Clc1c(-c2nnc(-c3cccs3)o2)sc2ccccc12
  CBX7 AlphaScr: 0.99 | CBX7 AlphaScr z-score: -0.13

smiles: CCc1ccccc1NS(=O)(=O)c1ccc2c(c1)CCC(=O)N2
  CBX7 AlphaScr: 0.95 | CBX7 AlphaScr z-score: -1.3

Later entries
SMILES | CBX7 AlphaScr | CBX7 AlphaScr z-score
O=C(NCCN1CCOCC1)C1CCN(c2nnc(-n3cccc3)s2)CC1 | 1.2 | 2.4
COc1cc2c(cc1OC)C(C(=O)N(C)Cc1ccccc1)C(c1ccccc1F)N(C)C2=O (stereo not drawn) | 1.1 | 1.4
COc1cccc(C(=O)Nc2ccc3nc(N4CCOCC4)cc(C)c3c2)c1 | 0.97 | -0.68
CCOc1ccc(N2C(=O)CC(N3CCC(C)CC3)C2=O)cc1 (stereo not drawn) | 0.94 | -0.89
CCOC(=O)c1ccc(NC(=O)C(Cc2ccccc2)N2C(=O)c3ccccc3C2=O)cc1 (stereo not drawn) | 0.99 | -0.015
COc1ccc(C2Nc3ccc(C(=O)c4ccccc4)cc3NC3=C2C(=O)CC(C)(C)C3)cc1OC (stereo not drawn) | 1 | 0.79
COc1ccc(-c2nc(CS(=O)(=O)CC(=O)NCCc3ccc(C)cc3)c(C)o2)cc1 | 0.92 | -1.4
Cn1nc(-c2ccc(C(=O)N3CCCCC3)cc2)c2ccccc2c1=O | 0.98 | -0.74
Cc1ccc(-c2nc(C#N)c(N3CCN(C)CC3)o2)cc1 | 0.88 | -0.15
O=C(CCNS(=O)(=O)c1ccc2c(c1)CCC(=O)N2)Nc1ccc(F)c(Cl)c1 | 0.95 | -0.96
CC1CN(c2nc(-c3ccc(Cl)cc3)cs2)CC(C)O1 (stereo not drawn) | 1.1 | 2.7
NC(=O)CSc1oc(-c2ccccc2)nc1S(=O)(=O)c1ccc(F)cc1 | 0.96 | -0.32
Cc1ccc2oc(-c3ccc(Cl)c(NC(=O)COc4ccc(Br)cc4)c3)nc2c1 | 1 | 0.73
COc1cccc(C2=NOC(C(=O)NCc3ccccc3)C2)c1OC (stereo not drawn) | 1 | 1.1
O=C(NCCc1ccccc1)C1CCC(=O)N1C1CCCCC1 (stereo not drawn) | 1 | 0.25
CCCc1nc2nc(C)cc(NCc3ccccc3)n2n1 | 0.83 | -2
COc1ccc(NC(=O)Cn2cc(S(=O)(=O)c3ccccc3)c(=O)c3ccccc32)cc1Cl | 0.98 | -0.25
CCCC(=O)NCc1nc2ccccc2n1Cc1c(F)cccc1Cl | 0.96 | -0.4
COC(=O)c1ccc(NC(=O)CSc2nc3ccccc3[nH]2)cc1 | 1 | 0.047
c1ccc(-c2csc(Nc3ncccn3)n2)nc1 | 0.0089* | -19*
CCn1c(/C=C/c2c[nH]c3ccccc23)nc2ccccc2c1=O | 0.77 | -2.5
Cc1ccc(S(=O)(=O)NCC2(c3ccccc3)CCOCC2)cc1 | 0.97 | -0.75
Cc1ccc(-c2nc(CSCC(=O)NC(C)CCc3ccccc3)c(C)o2)cc1 (stereo not drawn) | 0.91 | -1.8
CCOC(=O)C1CCCN(C(=O)c2ccc3nc(-c4cccs4)c(-c4cccs4)nc3c2)C1 (stereo not drawn) | 0.89 | -0.31
Cc1ccc(-c2nnn(CC(=O)NCc3ccccn3)n2)cc1 | 1 | 0.11
CC(C)NC(=O)c1cc(=O)[nH]c2ccc(S(=O)(=O)N3CCCCCC3)cc12 | 1 | 0.3
Cc1ccc(OCCn2c(NC(=O)c3ccc(Cl)cc3)nc3ccccc32)cc1 | 1 | 0.0076
CCOC(=O)c1sc2nc(C)n(CC(=O)Nc3ccc(C)c(Cl)c3)c(=O)c2c1C | 0.99 | -0.62
Cc1ccc(C(C(=O)NC2CCCCC2)N2CCOCC2)cc1 (stereo not drawn) | 1 | 0.42
Cc1ccc(-c2nnc(Nc3ccc(F)cc3)c3ccccc23)cc1S(=O)(=O)NCCO | 0.93 | -0.77
CCC(CO)Nc1ncnc2c1cnn2-c1ccc(OC)cc1 (stereo not drawn) | 1.2 | 0.2
CCCCCn1c(=N)n(CC(O)COc2ccc(OC)cc2)c2ccccc21 (stereo not drawn) | 1.3 | 1.5
O=C(Nc1ccc(Br)cn1)c1cc2ccccc2oc1=O | 1 | 0.23
O=C(Nc1sc2c(c1C(=O)N1CCCCCC1)CCC2)c1ccccc1F | 1 | 0.52
O=C(NCCc1ccccc1)c1cc2c(s1)CSC2 | 1.1 | 0.72
O=C(NCc1ccc(F)cc1)c1ccc2c(c1)N(Cc1ccc(Cl)cc1)CCS2 | 0.88 | -1.6

Entries from the list above with an NH in an aromatic ring, in the order listed:
SMILES | CBX7 AlphaScr | CBX7 AlphaScr z-score
C=CCn1c(Cc2c(C)[nH]c3ccccc23)nnc1SCC(=O)NCc1ccc(F)cc1 | 0.97 | -0.9
O=C(C1CCN(S(=O)(=O)c2cnc[nH]2)CC1)N1CCC(Cc2ccccc2)CC1 | 1.1 | 1.3
COC(=O)c1ccc(NC(=O)CSc2nc3ccccc3[nH]2)cc1 | 1 | 0.047
CCn1c(/C=C/c2c[nH]c3ccccc23)nc2ccccc2c1=O | 0.77 | -2.5
CC(C)NC(=O)c1cc(=O)[nH]c2ccc(S(=O)(=O)N3CCCCCC3)cc12 | 1 | 0.3

The list continues:
SMILES | CBX7 AlphaScr | CBX7 AlphaScr z-score
O=C(Cn1nc(-c2ccccc2)ccc1=O)NCCc1ccc(Cl)cc1 | 1 | 0.29
Cn1cc(CC(=O)N2CCN(c3ccccn3)CC2)c2ccccc21 | 0.97 | -0.31
CCCCCNc1nc2ccccc2nc1NS(=O)(=O)c1ccc(Cl)cc1 | 0.76 | -6.8
CCn1nc(CC(=O)c2ccc(Br)cc2)c(=O)n2c3ccccc3nc12 | 1.2 | 4.1
Cc1cc(C)cc(C(=O)N2CC(=O)Nc3ccc(C)cc3C2c2ccc(F)cc2)c1 (stereo not drawn) | 0.86 | -1.4
COc1ccc(CCNC(=O)c2c[nH]n3c(=O)c(Cc4ccccc4Cl)c(C)nc23)cc1OC | 1.1 | 1.2
O=C(Nc1ccc(-c2noc(-c3ccccc3Br)n2)cc1)c1ccccn1 | 0.89 | -1.3
COc1ccc(OC)c(NC(=O)c2c(-c3ccccc3)noc2C)c1 | 1.3 | 1.2
Cc1ccc(C)c(-n2c(Cc3cc(=O)[nH]c(=O)[nH]3)nnc2SCC(=O)NCCc2ccccc2)c1 | 0.55 | -0.94
CCOC(=O)c1cnc2c(C)cc(C)cc2c1NCc1ccccc1 | 1.9 | 9.1
CCn1cc(C(=O)Nc2ccc3c(c2)OCO3)c2cc(OC)c(OC)cc2c1=O | 0.97 | -0.47
O=C(Nc1ccc(Br)cc1F)C1(S(=O)(=O)c2ccc(Cl)cc2)CC1 | 1.2 | 2.7
O=C1CSC(c2cccnc2)N1c1ccc(Oc2ccccc2)cc1 (stereo not drawn) | 0.99 | -0.37
CN(C)c1ccc(C2NC(C(=O)O)Cc3c2[nH]c2ccccc32)cc1 (stereo not drawn) | 0.25* | -8.2*
Cc1cc(NC(=O)CSc2nccn2-c2ccccc2)no1 | 0.99 | -0.42
CCOC(=O)CSc1nnc(Cc2cc(=O)[nH]c(=O)[nH]2)n1-c1ccc(Cl)cc1 | 1 | 0.021
O=C(CSc1nnc(-c2c[nH]c3ccccc23)n1-c1ccc(F)cc1)Nc1nccs1 | 1 | -0.024
CCC(=O)N1CCc2cc(S(=O)(=O)Nc3c(C)cc(C)cc3C)ccc21 | 0.81 | -0.76
FC(F)(F)c1cc(-c2cccs2)nc(NC2CCCC2)n1 | 0.97 | -0.27
CCc1nc(C)ccc1OCC(=O)NCCCN(C)C | 0.48* | -11*
CC(C)Sc1oc(-c2ccc(F)cc2)nc1S(=O)(=O)c1ccc(Cl)cc1 | 1 | 0.34
COc1ccc(-c2cc(C(F)(F)F)n3nc(C(=O)Nc4c(F)cc(F)cc4Br)c(Cl)c3n2)cc1OC | 1.1 | 0.78
CCC(C)NC(=O)C(C)N1C(=O)COc2ccc(C)cc21 (stereo not drawn) | 1.1 | 2
COc1ccc(CNC(=O)C2CCC(CNS(=O)(=O)c3cccc4cccnc34)CC2)cc1 (stereo not drawn) | 1 | 0.19
CC(C)N(Cc1nc(-c2ccccc2)no1)C(=O)COc1ccc(Cl)cc1 | 1.1 | 2.9
Cc1cc(C(=O)N2CCN(C(c3ccccc3)c3ccccc3)CC2)on1 | 1 | 0.82
Cc1ccc(C)c(Nc2cc(C(=O)NCc3cccnc3)c3ccccc3n2)c1 | 0.92 | -1.3
CCOc1ccccc1NC(=O)COc1ccc(C(C)(C)C)cc1 | 0.98 | -0.054
O=C(NC1CC1)c1cnn(-c2ccccc2)c1-n1cccc1 | 1 | 1.3
N#Cc1nc(COc2ccc(Cl)cc2)oc1N1CCCCCC1 | 0.37* | -3.9*
Cc1ccc(CNC(=O)CCCn2nc(-c3ccccc3)c3ccccc32)cc1 | 1.1 | 1.2
CCN(C(=O)Cc1c(C(=O)O)[nH]c2ccc(Cl)cc12)c1ccc(C)c(C)c1 | 0.96 | -1.2
O=C(Cc1ccc(F)cc1)Nc1c2c(nn1-c1cccc(Cl)c1)CSC2 | 1 | 0.81
Brc1c(CSc2nc3ccccc3[nH]2)nc2ncccn12 | 0.87 | -0.51
COc1cccc(NC(=O)CNC(=O)Cn2cnc3sc(C)c(C)c3c2=O)c1 | 0.94 | -1.9
COc1cc2[nH]c(=O)n(CCC(=O)N3CCN(c4cccc(Cl)c4)CC3)c(=O)c2cc1OC | 1 | 0.28
CN(C)S(=O)(=O)c1ccc(C(=O)Nc2ccccc2-c2nc3ccccc3s2)cc1 | 1.1 | 1.4

Screening results from PubChem.
